Assay outcomes as filed in PubChem.
Ecoli growth – E. coli growth inhibition. OD600 absorbance (test concentration not listed). 0.21% of 330,000 active. Escherichia coli growth, OD600, 23 h; stronger effect = lower value;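 active means OD600 absorbance below the run mean of sample wells minus 3.6 SD, in any replicate, cut at about 0.56 in these data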;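 further: stock transfer was 300 nL into about 60 µL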
Vif TR-FRET – HIV-1 Vif–A3G interaction blockers – biochemical, TR-FRET, GST-Vif 1-94, biotin-A3G peptide, dose response retest, primary screen (AID 1117319); TR-FRET GST-Vif / biotin-A3G peptide binding; higher % means a stronger effect; test concentration not given here; strong numbers were not always called active; one-dose inhibition, %; IC50 in µM for titrated hits; 0.57% of 260,000 active;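 active means above the screen mean plus three standard deviations and confirmed in dose response; inconclusive means results disagree or hit not tested in dose response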;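 further: Vif residues 1-94 fused to GST binding biotinylated APOBEC3G peptide 110-148; 0% = full assay without inhibitor and 100% = GST in place of GST-Vif; retest series ran down from 100 µM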
MLL AF4-AF9 inh – inhibitors of human MLL-AF4/AF9 interaction; inhibition, % at 10 µM; AID 651704; P42568; 0.47% of 350,000 active; AlphaScreen, biotin-AF4 peptide binding to FLAG-AF9;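 active means every replicate reaching a set inhibition limit, whatever the replicate mean, cut at about 25% in these data; inconclusive means mean inhibition reaches that limit but some replicates miss it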;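 further: 0% = plate neutral control median and 100% = total signal loss; the record names both 10 and 1 µM as test concentration; the first replicate is given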
UCH37 inh – inhibitors of human deubiquitinating enzyme UCH37; Q9Y5K5; purified proteasome/UCH37, Ub-AMC cleavage fluorescence; inhibition, % (no concentration beside the values); 0.33% of 330,000 active;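 active means mean of two replicates above 20%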;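 further: 0% = compound-free wells with enzyme and 100% = wells lacking proteasome; stock transfer was 100 nL into about 20 µL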
Target sequence (Q9Y5K5 whole entry, looked up): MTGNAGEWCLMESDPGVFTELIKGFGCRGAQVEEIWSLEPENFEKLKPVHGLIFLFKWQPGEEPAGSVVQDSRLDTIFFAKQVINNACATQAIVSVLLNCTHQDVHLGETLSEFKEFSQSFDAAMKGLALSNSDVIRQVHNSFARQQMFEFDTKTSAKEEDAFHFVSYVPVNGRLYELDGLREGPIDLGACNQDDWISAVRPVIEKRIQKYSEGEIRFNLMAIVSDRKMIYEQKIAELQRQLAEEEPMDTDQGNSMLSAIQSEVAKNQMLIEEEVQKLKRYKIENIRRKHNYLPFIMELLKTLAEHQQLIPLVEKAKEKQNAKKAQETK
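Material: Human UCH37 enzyme supplied as purified proteasome complex | Schedule: 30 min compound-proteasome preincubation then 25 min substrate reaction, room temperature | Detection: AMC fluorescence from Ub-AMC cleavage, excitation 355 nm, emission 460 nm | Benchmarks: Wells without proteasome as full block, compound-free enzyme plus substrate as uninhibited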
RanGTP-Impb inh – inhibitors of RanGTP-importin-beta interaction, primary screen, biochemical, FRET, CFP-Ran, YFP-importin-beta, homogeneous; cell-free CFP-Ran/YFP-importin-beta FRET ratio; inhibition, % (concentration not given with the values); 1.1% of 300,000 active; AID 2216;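 active means most replicates above 15%; inconclusive means exactly half above 15%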;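 further: 0% = DMSO wells and 100% = Ran loaded with GDP instead of GTP; wells of about 40 µL received 100 nL stock; the first replicate is given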
HNF4A DNA FP – change in binding of human HNF4 alpha to DNA; 0.3% of 360,000 active; P41235; activity change, % at 10 µM; AID 1224865; HNF4a-FITC DNA binding, fluorescence polarization, 1 h; in the data active means activity change above about 30%, passing the limit was not always enough;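 further: controls were the assay level and a saturating level of protein; the project sought stronger binding though the title names inhibitors; some compounds called inactive have numbers as strong as hits; positive values seem to mean higher polarization but the record does not say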
Target sequence (P41235 whole entry, looked up): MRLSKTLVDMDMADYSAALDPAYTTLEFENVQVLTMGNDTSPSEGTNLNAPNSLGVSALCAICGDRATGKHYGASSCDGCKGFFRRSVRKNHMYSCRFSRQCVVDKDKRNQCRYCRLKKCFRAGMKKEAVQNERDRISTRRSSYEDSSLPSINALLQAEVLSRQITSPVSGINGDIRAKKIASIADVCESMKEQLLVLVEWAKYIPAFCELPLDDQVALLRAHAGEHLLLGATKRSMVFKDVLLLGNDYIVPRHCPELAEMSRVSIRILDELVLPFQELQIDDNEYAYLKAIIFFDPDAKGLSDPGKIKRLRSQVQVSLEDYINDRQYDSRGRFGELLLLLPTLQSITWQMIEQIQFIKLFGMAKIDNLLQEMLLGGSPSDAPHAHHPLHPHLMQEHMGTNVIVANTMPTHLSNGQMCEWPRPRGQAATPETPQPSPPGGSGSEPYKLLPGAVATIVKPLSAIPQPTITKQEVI
FGF22 binding – shifts melting point of recombinant human FGF22. Q9HCT0. recombinant FGF22 thermal shift, SYPRO orange fluorescence; percent of sucrose octasulfate shift, DMSO zero. calls only at 9.99 µM. 1.5% of 340,000 active;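 active means melting point raised past a set limit in the mean and every replicate; inconclusive means no clear call; three in four hits are not shown here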
Target sequence (Q9HCT0 whole entry, looked up): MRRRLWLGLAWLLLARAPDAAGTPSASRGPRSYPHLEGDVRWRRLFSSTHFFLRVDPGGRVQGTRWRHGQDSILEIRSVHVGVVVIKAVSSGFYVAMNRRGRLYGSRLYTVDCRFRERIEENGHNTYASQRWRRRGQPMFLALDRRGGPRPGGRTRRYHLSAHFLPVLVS
Starred values were filed as active, the others as inactive; i = inactive; u = inconclusive; x = no result given; & = joins results of further samples. This is a subset; count on the stated rates, not on these rows.

SMILES | Ecoli growth | Vif TR-FRET | MLL AF4-AF9 inh | UCH37 inh | RanGTP-Impb inh | HNF4A DNA FP | FGF22 binding
Cc1cc(NC(=O)Cn2nc3c(cc2=O)CCCC3)ccc1Br | 0.74 | 5% | x | 0.5 | 0.8 | 3.6 | x
CN1OC[C@@H]2CN(C(=O)C(C)(C)C)[C@H](c3ccc(-n4ccnc4)cc3)C[C@@H]21 | x | x | -3.0 | x | x | 2.2 | i
COC(=O)[C@H]1C[C@H](O)CN1S(=O)(=O)c1ccc(Br)cc1F | 0.69 | 2% | -5.8 | 4.5 | x | 2.5 | i
COC(=O)c1ccccc1NC(=O)CN1CCc2ccccc2C1 | 0.64 | 0% | -0.1 | 3.4 | -2.7 | 0.5 | i
O=C(O)c1ccc(Cl)c(S(=O)(=O)N2CCC(Cc3ccccc3)CC2)c1 | 0.66 | x | 7.4 | -3.1 | -5.7 | 0.4 | i
Cc1sc2nc(CSCC(=O)Nc3ccc(C(F)(F)F)cc3)[nH]c(=O)c2c1C | 0.65 | x | -9.2 | -8.6 | x | 6.8 | i
CC(C)c1ccccc1OCCCCCNCCO | 0.68 | 6% | -48 | 3.7 | 0.6 | 2.9 | i
CC(=O)NC(C)(c1ccccc1)c1nc(-c2cncnc2)cs1 (stereo unspecified) | x | x | -2.7 | x | x | -0.3 | i
N#CCCc1cccc(CCC#N)c1 | 0.7 | x | -2.5 | 1.4 | 4.4 | 0.7 | i
O=C(NN1CCOCC1)c1ccc(Cl)c([N+](=O)[O-])c1 | 0.72 | x | 2.3 | 1.5 | 2.6 | -3.0 | i
C=CCn1c(SCC(=O)Nc2ccc(N3CCOCC3)cc2)nc2ccccc2c1=O | 0.76 | 4% | -2.0 | -1.8 | -2.8 | 2.2 | i
COc1ccc(OC)c(NC(=O)CCC(=O)N(Cc2ccc(OC)c(OC)c2)c2nccs2)c1 | 0.72 | x | 6.7 | 3.7 | -2.3 | -3.2 | i
COC(=O)CCC(=O)c1oc2ccccc2c1N | 0.66 | 9% | x | -1.9 | 2.8 | 2.0 | x
NC(=O)c1cnn2c(-c3ccc(Cl)cc3Cl)ccnc12 | 0.67 | -6% | x | -74 | 2.6 | -0.6 | x
Cn1nnnc1SCC(=O)Nc1nc(-c2ccc(F)c(F)c2)cs1 | 0.72 | 2% | -1.8 | -0.6 | 0.1 | 4.6 | i

Four entries drawn at random from the list so far, as already listed:
SMILES | Ecoli growth | Vif TR-FRET | MLL AF4-AF9 inh | UCH37 inh | RanGTP-Impb inh | HNF4A DNA FP | FGF22 binding
COC(=O)c1ccccc1NC(=O)CN1CCc2ccccc2C1 | 0.64 | 0% | -0.1 | 3.4 | -2.7 | 0.5 | i
COC(=O)CCC(=O)c1oc2ccccc2c1N | 0.66 | 9% | x | -1.9 | 2.8 | 2.0 | x
O=C(NN1CCOCC1)c1ccc(Cl)c([N+](=O)[O-])c1 | 0.72 | x | 2.3 | 1.5 | 2.6 | -3.0 | i
C=CCn1c(SCC(=O)Nc2ccc(N3CCOCC3)cc2)nc2ccccc2c1=O | 0.76 | 4% | -2.0 | -1.8 | -2.8 | 2.2 | i

(listing goes on)
SMILES | Ecoli growth | Vif TR-FRET | MLL AF4-AF9 inh | UCH37 inh | RanGTP-Impb inh | HNF4A DNA FP | FGF22 binding
CC(=O)N1CCSc2ccc(S(=O)(=O)Nc3cccc(C)c3)cc21 | 0.65 | -6% | -15 | 3.4 | -1.0 | 0.4 | i
COc1ccc(CCN(C)C(=O)c2cc(S(=O)(=O)N3CCCCC3)ccc2Cl)cc1OC | 0.68 | 1% | 8.5 | 2.1 | 1.0 | 2.6 | i
Cc1cc(C)c2c(=O)[nH]c(SCc3ccccc3)nc2n1 | 0.63 | x | -2.6 | 3.6 | -0.8 | 1.8 | x
Cc1nnc(-n2cnc3ccccc32)c2ccccc12 | 0.72 | 25% | x | -1.3 | -5.9 | -0.9 | x
O=C(NC(c1ccc(Cl)cc1)c1cnccn1)C1CCN(Cc2ccccc2)CC1 (stereo unspecified) | x | x | 1.5 | x | x | -2.7 | i
CC(C)(C)C(=O)Nc1cc(NC(=O)C(C)(C)C)cc(C(=O)NNC(=O)c2ccncc2)c1 | 0.63 | x | 1.4 | 1.3 | -7.6 | -6.4 | i
O=C(CSc1nc(O)c(C2CCCCC2)c(=O)[nH]1)Nc1ccccc1Cl | 0.7 | x | -1.5 | 11 | 1.0 | -2.5 | i
C[C@H](CO)N1C[C@H](C)[C@H](CN(C)C(=O)Nc2cccc(F)c2)Oc2cc(C#CC3(O)CCCC3)ccc2S1(=O)=O | x | -2% | 0.6&0.6&3.7 | x | x | -0.8 | i
CN(C)c1ccc(NC(=O)c2ccncc2)c2ccccc12 | 0.72 | 7% | x | 2.7 | 0.6 | 3.3 | x
COC(=O)c1ccc(CSc2nc3ccccc3c(=O)n2-c2cccc(OC)c2)o1 | 0.72 | 4%&0% | 2.6 | 4.9 | 6.4 | -1.8 | i
Cc1ccc(N2CCN(S(=O)(=O)N(C)C)CC2)cc1C | 0.66 | -1% | 2.1 | 1.9 | 2.6 | 0.4 | i
CCOC(=O)C(=O)Nc1ccc(S(=O)(=O)Nc2nccc(C)n2)cc1 | x | x | -7.7 | x | x | -0.7 | i
Cc1ccccc1CC(=O)Nc1ccc2c(c1)c(=O)n(C)n2-c1ccccc1F | x | x | -2.3 | x | x | 5.5 | i
COc1cccc(C(=O)n2ccc(-c3cccs3)n2)c1 | 0.71 | -3% | 0.2 | 0.9 | 1.5 | 3.1 | i
NC(N)=N/N=C/c1ccc(OCc2ccccc2)cc1 | x | -3% | 15 | x | 0.8 | 4.2 | i
COc1cccc(NC(=O)c2cn(C)c(=O)c3cc(OC)c(OC)cc23)c1 | 0.79 | 18% | x | 3.3 | 6.0 | -0.9 | x
CCOc1ccc2[nH]c3ncccc3c(=O)c2c1 | 0.59 | x | -1.3 | -32 | 34* | -13 | i
COc1cc(/C=C/C(=O)OCC(=O)NC2CCCCCCC2)ccc1O | 0.7 | x | 0.7 | -4.4 | x | 2.5 | i
Clc1ccc(CNc2ccc(CNc3ncn[nH]3)cc2)cc1 | 0.66 | x | x | 4.5 | -2.9 | -0.3 | x
COc1ccc(C(=O)C(O)C(c2ccc(C)cc2)N2CCOCC2)cc1OC (stereo unspecified) | 0.72 | -3% | -1.2 | -1.6 | 1.2 | 2.0 | i
O=C(CN1CCN(S(=O)(=O)c2ccc3ccccc3c2)CC1)Nc1ccc2c(c1)CCC2 | 0.71 | 32% | x | 2.0 | -4.4 | -0.5 | x
CCOc1ccc(CCNC(=O)COC(=O)c2nc3nc(C)cc(C)n3n2)cc1OCC | 0.7 | 12% | x | 2.3 | u | -0.8 | x
CN1CCN(c2ccccc2NC(=O)c2ccc([N+](=O)[O-])o2)CC1 | 0.56 | x | x | 3.2 | 0.0 | -1.4 | x
CC(CCc1ccccc1)NCc1ccc(Cl)cc1Cl (stereo unspecified) | 0.63 | x | -1.7 | 1.2 | 0.5 | -1.0 | i
CCOC(=O)C1CCN(Cc2ccc(OC)c(C)c2OC)CC1 | 0.68 | 20% | x | 1.9 | 3.0 | 2.1 | x
CCC1CCCCN1C(=S)Nc1ccc(C(C)=O)cc1 (stereo unspecified) | 0.71 | -2% | x | 1.9 | 2.7 | -2.4 | x
Cc1cccc(NC(=O)c2cc3cc([N+](=O)[O-])ccc3s2)n1 | 0.72 | -14% | -1.3 | 2.5 | u | 0.2 | i
CN(CC(=O)Nc1ccc(F)c(Cl)c1)S(=O)(=O)c1ccc2c(c1)n(C)c(=O)c(=O)n2C | 0.69 | x | -0.9 | 1.0 | 4.1 | -0.6 | i
COc1ccc(NC(=O)CCS(=O)(=O)c2cccc3nonc23)cc1 | 0.74 | 3% | 5.2 | 0.1 | -0.1 | 0.8 | i
COc1cccc(/C=N/NC(=O)c2cccc(N3CCCC3=O)c2)c1 | x | x | -1.8 | x | 4.4 | 0.6 | i
O=c1ccn([C@@H]2O[C@H](CO)[C@@H](O)[C@H]2O)c(=O)[nH]1 | x | u | -3.0 | 5.2 | u | -3.4 | i
CN(c1ccccc1)S(=O)(=O)c1ccc(C(=O)NCCc2ccc(F)cc2)cc1 | 0.67 | x | -2.7 | 0.9 | -2.7 | -2.3 | i
COc1cccc(-c2cc(=O)c3cc(NC(=O)c4ccc(Cl)cc4)ccc3[nH]2)c1 | 0.67 | 21% | -48 | 0.0 | 0.2 | 14 | i
Cc1ccc(Nc2nc3ccccc3nc2-n2nc(C)cc2C)cc1 | 0.74 | 76% | -1.4 | -9.4 | 31* | -3.0 | i
O=C(NC1CCCCCCC1)c1cnccn1 | 0.71 | 4% | x | 0.4 | -2.7 | -1.0 | x
Cc1c(Cl)c([N+](=O)[O-])nn1CCCC(=O)Nc1sc2c(c1C#N)CCC2 | 0.73 | 29% | 3.3 | 2.1 | 0.1 | -1.4 | i
COCCNC(=O)CN1C(=O)/C(=C/c2ccccc2)Oc2ccc(C(C)(C)C)cc21 | 0.68 | -9% | -3.5 | -299 | 4.7 | 1.2 | i
COc1cc2c(cc1OC)CN(CC(=O)Nc1ccc(Cl)cc1Cl)CC2 | 0.67 | -4% | 1.7 | -0.3 | 6.8 | 0.8 | i
CCOc1cc(/C=C2\C(=O)ON=C2c2ccccc2)ccc1OC | 0.68 | 1% | -11 | 3.5 | 0.4 | 1.0 | i
Cc1ccccc1C(=O)Nc1ccc(CN2CCOCC2)cc1 | 0.67 | x | -5.5 | 2.8 | -2.6 | -0.9 | i
C/C(CC1CC(COCC(C)C)OC1=O)=N\NC(N)=S (stereo unspecified) | x | 0% | -4.0 | x | 0.3 | 1.2 | i
CC(C)C#Cc1cnc2c(c1)C(=O)N([C@@H](C)CO)C[C@@H](C)[C@H](CN(C)Cc1cccc(F)c1)O2 | x | -6% | 4.4&4.9&6.9 | x | x | -5.3 | i
CC(Sc1nncs1)C(=O)Nc1ccc(S(=O)(=O)Nc2ncccn2)cc1 (stereo unspecified) | 0.68 | x | -3.0 | 3.6 | x | -3.5 | i
Cc1cccc(NC(=O)C2COc3ccccc3O2)n1 (stereo unspecified) | 0.65 | x | -2.9 | 3.1 | 7.1 | -2.8 | i
CN(CC(=O)Nc1ccccc1Cl)C(=O)COC(=O)CSc1ccc(F)cc1 | 0.65 | -3% | 0.6 | 6.7 | 0.0 | 2.7 | i
Cc1ccc(S(=O)(=O)NCc2ccc(C(=O)NC3CCC(C)CC3)cc2)cc1 (stereo unspecified) | 0.7 | x | -0.1 | 2.6 | 5.6 | 1.2 | i
NS(=O)(=O)c1ccc(CCNC(=O)c2ccc([N+](=O)[O-])cc2[N+](=O)[O-])cc1 | 0.73 | -4% | -2.5 | 2.2 | 0.0 | 4.1 | i
CCOC(=O)N1CCN(C(=O)COC(=O)C2CCN(S(=O)(=O)c3c(C)c(C)cc(C)c3C)CC2)CC1 | 0.68 | -1% | -2.2 | 2.2 | 1.0 | 2.4 | i
CC(C)N=c1c([N+](=O)[O-])nn(C)n1O | 0.7 | 17% | -0.8 | 3.4 | -2.0 | -1.9 | i
O=c1[nH]c2sc3c(c2c2nncn12)CCCC3 | 0.64 | 24% | x | -2.2 | 0.1 | 0.1 | x
COC(=O)c1sc(NC(=O)OCc2ccccc2)nc1CCNC(=O)OC(C)(C)C | x | x | -4.8 | x | x | 0.4 | i
CCC(C(=O)NC(C)(C)C)N(Cc1ccc(OC)cc1)C(=O)c1snc(C(N)=O)c1N (stereo unspecified) | x | 5% | -4.4 | x | x | 1.3 | x
CC(C)(C)NC(=O)C1CCN(c2ccc(S(=O)(=O)N3CCOCC3)cc2Cl)CC1 | 0.71 | x | -5.8 | -0.6 | 3.7 | -2.9 | i
CCOc1c(Br)cc(CNC2CCCCCCC2)cc1OC | 0.62 | x | 9.8 | 3.1 | 1.5 | -1.3 | i
